Rango release inh: inhibition of RanGTP-driven Rango-importin beta dissociation. O95149+P62826. Biochemical FRET Rango-importin beta, RanGTP-induced dissociation. Potency, µM (highest dose often 46.1 µM), for the others: at the top dose activity change, negative = inhibition. 340,000 tested, 0.071% active. AID 540253; active means falling FRET ratio curve, often poorly fitted, with flat reads before Ran was added; inconclusive means other falling curves, or compound fluorescence or quenching; inactive means flat or rising ratio curve;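 also: potency is read from the fitted curve at half-maximal effect; % of control where 0% means no effect; nearly all actives have a fitted effect of over 45% in size; -100% = wells without RanGTP and RCC1; the record marks most hits as doubtful in a second field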
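Rango FRET biosensor (snurportin-1 IBB flanked by N-terminal EYFP and C-terminal CFP10) at 0.1 uM, with 0.25 uM importin beta in PBS, 1mM DTT, 0.02% Tween-20, 0.1% BSA. 0.6 uM Ran, 2mM GTP and 0.2 uM RCC1 were then added for 45 min at room temperature. Inhibition read as loss of FRET rise.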
GLA inh pH 4.5: inhibitors of human alpha-galactosidase A at pH 4.5 | P06280 | purified enzyme, 4-MU-alpha-Gal fluorescence, pH 4.5 | activity change, negative = inhibition, % at 105 µM | 230,000 tested, under 10 active | AID 1467; inconclusive = small, poorly fitted or top-dose-only inhibition, or a rising curve; inactive = flat fitted curve, though single readings scatter; no compound was filed as active;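 also: 0% = full activity with enzyme and -100% = basal without enzyme; dose as in the result columns while the protocol names 77 µM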
Rango complex inh: Rango-importin beta binding inhibition; 340,000 tested, 0.031% active; Q14974; Rango CFP/YFP FRET sensor + importin beta, 45 min; Potency, µM (doses to about 92.2 µM), inactives show at the highest dose inhibition of complex formation; AID 540263; active = rising FRET ratio curve, often small or poorly fitted; inconclusive = mostly compound fluorescence or quenching in the first reads; inactive = flat curves in all reads;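 also: potency is read from the fitted curve at half-maximal effect; 0% = DMSO wells and 100% = buffer wells lacking importin beta; nearly all actives have a fitted effect of over 15% in size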
Target sequence (Q14974 whole entry, looked up): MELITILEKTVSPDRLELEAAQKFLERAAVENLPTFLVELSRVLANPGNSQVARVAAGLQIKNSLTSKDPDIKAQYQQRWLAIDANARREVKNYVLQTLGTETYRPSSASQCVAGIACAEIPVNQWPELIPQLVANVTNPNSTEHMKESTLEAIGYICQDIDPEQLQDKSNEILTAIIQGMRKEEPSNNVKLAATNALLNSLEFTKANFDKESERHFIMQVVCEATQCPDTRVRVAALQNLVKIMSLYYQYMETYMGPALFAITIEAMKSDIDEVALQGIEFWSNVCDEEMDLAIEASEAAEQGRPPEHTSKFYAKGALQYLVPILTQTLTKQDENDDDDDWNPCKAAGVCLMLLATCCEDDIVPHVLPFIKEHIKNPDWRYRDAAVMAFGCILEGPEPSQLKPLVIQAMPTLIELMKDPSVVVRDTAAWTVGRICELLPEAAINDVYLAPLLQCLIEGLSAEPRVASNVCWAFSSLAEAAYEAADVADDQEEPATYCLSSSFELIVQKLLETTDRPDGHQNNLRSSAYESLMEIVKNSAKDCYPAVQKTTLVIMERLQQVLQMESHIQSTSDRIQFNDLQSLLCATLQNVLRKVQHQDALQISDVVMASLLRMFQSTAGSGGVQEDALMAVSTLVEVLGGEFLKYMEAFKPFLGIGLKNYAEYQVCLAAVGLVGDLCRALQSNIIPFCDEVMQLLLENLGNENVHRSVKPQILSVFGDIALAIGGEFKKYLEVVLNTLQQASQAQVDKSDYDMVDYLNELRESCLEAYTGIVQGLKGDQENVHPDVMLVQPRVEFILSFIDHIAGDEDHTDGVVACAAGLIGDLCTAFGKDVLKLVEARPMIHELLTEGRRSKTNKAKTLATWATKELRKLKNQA
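Inhibition scored from the CFP 486 nm/YFP 530 nm FRET ratio 45 min after adding 0.125 microM importin beta to 50 nM Rango biosensor preincubated 5 min with compound (room temperature, PBS with DTT, Tween-20, BSA). No-importin wells as positive control.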
miR-21 FLuc: raises the signal of a miR-21 reporter; Potency, µM (top dose mostly 38.3 µM), for the others: at the highest dose reporter change, positive = more light; 340,000 tested, under 10 active; HeLa miR-21 FLuc reporter, luciferase, 48 h; active = well fitted rising curve with a large enough effect; inconclusive = small, poorly fitted or top-dose-only effect; inactive = no such curve, though single readings can be large or run the other way;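 also: % of control where 0% means no effect; miR-21 action dims this reporter so a rising signal means less miR-21 action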
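HeLa cells stably expressing CMV-driven firefly luciferase with a downstream miR-21 binding sequence, endogenously expressing miR-21, were treated with titrations (up to about 40uM final) for 48 hours at 37 degree Celsius. Luciferase luminescence was read after lysis.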
* hit, by the source's call; ? = inconclusive; . = no result given; & = joins results of further samples. Not all compounds are listed. The share of hits here may be higher or lower than overall.

Order of values – Rango release inh | GLA inh pH 4.5 | Rango complex inh | miR-21 FLuc
CCCCn1c(=O)c(C(=O)Nc2nnc(C(C)C)s2)c(O)c2ccccc21
 : . | 8 | . | 5%
CN(C)c1ccc([N+](=O)[O-])c([N+](=O)[O-])c1
 : -17% | . | 9.3% | .
CCCNC(=O)c1c(N)n(Cc2ccco2)c2nc3ccccc3nc12
 : ? | 18 | ? | 3%
CCCCC/C(=N\O)c1c[nH]c2ccccc12
 : 10% | 2 | -6.2% | -29%
COc1ccccc1N1CCN(Cc2cnc(-c3ccccc3)[nH]2)CC1
 : 2% | -1 | -2.2% | 6%
CC(C)n1c(=O)c(C=Nc2cccc([N+](=O)[O-])c2)c(O)n(CCc2ccccc2)c1=O
 : 16% | -3 | -2.9% | -5%
CC(C)(C)c1ccc(C(=O)NC(=S)Nn2cnnc2)cc1
 : 18% | 1 | -0.3% | -45%
C=CCn1c(O)c(C(CC)=NCCN2CCN(C(=S)NC)CC2)c(=O)[nH]c1=O
 : 0% | 3 | -2.1% | 1%
COc1ccc(-[n+]2c(-c3ccccc3)cc(-c3ccccc3)cc2-c2ccccc2)cc1
 : -1% | . | 0.3% | .
O=C(c1ccc2c(c1)N(Cc1ccc(F)cc1)CCS2)N1CCC2(CC1)OCCO2
 : 21% | . | 1.7% | 3%
NC(C(=O)O)c1cc(=O)[nH]o1 (stereo not drawn)
 : 0% | -3 | 0.9% | .
O=[N+]([O-])c1ccc(N2CCCC2)c(F)c1Br
 : 18% | -2 | -0.6% | -2%
CC(=O)Cc1ccc(OC(C)C)cc1
 : 17% | -8 | -1.7% | 2%
COc1ccc(S(=O)(=O)NC(CC(=O)N2CCC3(CC2)OCCO3)c2ccco2)cc1 (stereo not drawn)
 : 0% | -7 | 0.4% | -4%
CS(=O)(=O)N1Cc2cnnn2-c2ccccc2C1C#N (stereo not drawn)
 : -11% | . | -0.1% | .
O=C(CNC(=O)OCc1ccccc1)NCC(=O)Nc1ccc(Br)cc1C(=O)c1ccccc1
 : -7% | -5 | 0.3% | 9%
CSC1=NP(=S)(SC)N2CCCC2=C1C#N (stereo not drawn)
 : 8% | -17 | -5.1% | -4%
N[C@H](CO)Cc1ccccc1
 : -15% | . | -2.5% | .
N#CC1=C(N)Oc2cc(O)ccc2C1c1ccc2c(c1)OCO2 (stereo not drawn)
 : ? | 7 | ? | -7%
CCCCCn1c(N)c(C(=O)NCc2cccs2)c2nc3ccccc3nc21
 : ? | -6 | ? | 2%
CCOC(=O)C1C(OC(=O)c2ccccc2)CC2CCC1N2C (stereo not drawn)
 : 0% | . | -4.9% | .
COc1ccc2c(c1)c(CCN)c(C)n2Cc1ccccc1
 : -14% | -2 | -0.5% | 3%
Cc1ccc(C(=O)NC2CC3CCC(C2)N3)cc1 (stereo not drawn)
 : -11% | 2 | 0.9% | 0%
COc1cc2c(cc1OC)-c1c(OC)c(OC)c(OC)c3ccnc(c13)C2=O
 : -12% | -1 | 9.4% | -15%
O=C(Nc1ccccc1)N1CC2CC(C1)c1cccc(=O)n1C2 (stereo not drawn)
 : 4% | 3 | -0.2% | 2%
O=C(c1csc2c1CCCCC2)N1CCC2(CC1)OCCO2
 : -7% | 4 | -0.8% | -3%
COC(=O)C1=C(c2ccc(S(C)(=O)=O)cc2)C[C@@H]2CC[C@H]1N2C(=O)NCc1ccc(C(F)(F)F)cc1
 : -3% | . | -5.0% | .
COc1ccc2c(c1OC)CN1CCc3cc4c(cc3C1C2)OCO4 (stereo not drawn)
 : -5% | . | 4.4% | 3%
COc1cccc(Cn2c(=O)oc3ccccc32)c1
 : 8% | . | 0.0% | -44%
CC(C)c1ccc(N2C(=O)NC(=O)/C(=C\C=C\c3ccco3)C2=O)cc1
 : -23% | -5 | ? | 3%
O=C(CN1C(=O)CCSc2ccccc21)N1CCC2(CC1)OCCO2
 : 4% | -5 | -0.7% | 1%
O=C(Nc1ccccc1OC(=O)N1CCCCC1)N1CCCCC1
 : 9% | 6 | 0.0% | 4%
C[C@H]1C/C=C/[C@H]2[C@H](O)[C@H](C)[C@@](C)(O)[C@H]3[C@H](Cc4ccccc4)NC(=O)[C@]32[C@H](O)/C=C/[C@](C)(O)C1
 : -5% | . | 1.3% | .
CC12CC(=O)C3C(CCC4CC(=O)C=CC43C)C1CCC2=O (stereo not drawn)
 : -4% | . | -1.1% | .
CCC(=O)N1N=C2C3CCN(CC3)C2C1c1ccccc1 (stereo not drawn)
 : 12% | 3 | 2.9% | 2%
CC1CCCN(CC(=O)N2CCCc3ccccc32)C1 (stereo not drawn)
 : -1% | 6 | 0.3% | -23%
C=CCN1CC[C@@]2(C)c3cc(O)ccc3CC1[C@@H]2C
 : -12% | -7&4 | -0.5% | 0%
Cc1ccc(CN2C3CCCC2CC(NC(=S)NCc2ccccc2)C3)cc1 (stereo not drawn)
 : 20% | -5 | 6.2% | -2%
CC(=O)C1=NOC(CNc2ncc(C(F)(F)F)cc2Cl)C1 (stereo not drawn)
 : 1% | 5 | 0.9% | -56%
Cc1ccc(N2C(=O)NC(=O)C(CCc3ccccn3)(Cc3ccc(F)cc3)C2=O)cc1 (stereo not drawn)
 : 2% | 9 | -0.7% | -1%

The final 3 entries of the part above lead into the next:
Order of values – Rango release inh | GLA inh pH 4.5 | Rango complex inh | miR-21 FLuc
Cc1ccc(CN2C3CCCC2CC(NC(=S)NCc2ccccc2)C3)cc1 (stereo not drawn)
 : 20% | -5 | 6.2% | -2%
CC(=O)C1=NOC(CNc2ncc(C(F)(F)F)cc2Cl)C1 (stereo not drawn)
 : 1% | 5 | 0.9% | -56%
Cc1ccc(N2C(=O)NC(=O)C(CCc3ccccn3)(Cc3ccc(F)cc3)C2=O)cc1 (stereo not drawn)
 : 2% | 9 | -0.7% | -1%
O=C1NC(=O)N(Cc2ccc(F)cc2)C(=O)/C1=C\c1ccc([N+](=O)[O-])s1
 : 1% | -1 | ? | 0%
O=C(c1cccc([N+](=O)[O-])c1)C12CN3CN(CN(C3)C1)C2
 : -12% | -2 | 1.2% | 0%
C=CCn1c(O)c(C=NCCCOc2ccc(CC)cc2)c(=O)[nH]c1=S
 : -4% | -3 | 0.2% | -3%
Cc1ccc(C2CN(C)CC2C(=O)c2ccc(F)cc2)cc1 (stereo not drawn)
 : -7% | . | -2.1% | -1%
COC(=O)C1=C(c2cccc3c2S(=O)(=O)c2ccccc2-3)C[C@@H]2CC[C@H]1N2C(=O)N1CCOCC1
 : 0% | . | -2.7% | .
C[C@]12CCC3C(CC[C@H]4C[C@H](O)CC[C@]34C)C1[C@@H](O)[C@@H](O)[C@@H]2O (stereo partly drawn)
 : 1% | . | -1.0% | .
C=CCn1c(O)c(/C(C)=N/NC(=S)Nc2ccccc2)c(=O)[nH]c1=O
 : -16% | 2 | -1.7% | -20%
Cc1ccc2c(c1)C1CN(C)CCC1N2C(=O)c1cccs1 (stereo not drawn)
 : -1% | -4 | -1.9% | -4%
COc1ccccc1N=Nc1c(O)[nH]c(=S)[nH]c1=O
 : 10% | -8 | 15% | -72%
CN1C(=O)/C(=C\c2ccc(N3CCCCCC3)cc2)C(=O)NC1=S
 : -17% | -13 | ? | 5%
C[C@]12C=CC(=O)C=C1C=C[C@@H]1C2CC[C@]2(C)C(=O)CCC12 (stereo partly drawn)
 : -23% | . | ? | -3%
CC12CC(O)C3C(CCC4=CC(=O)CCC43C)C1CCC2=O (stereo not drawn)
 : -19% | . | -0.5% | .
Cc1cc(Cl)nc(N)n1
 : -14% | -1 | 3.8% | -2%
Cc1c(C(=O)c2ccccc2)c2ccccc2n1C
 : 9% | 1 | -4.5% | -12%
FC(F)=C(F)CCSc1ncn[nH]1
 : 0% | 1 | -5.2% | 4%
C[C@]12CCC3C(C[C@@H](O)[C@H]4C[C@@H](O)CC[C@]34C)C1CC[C@@H]2O (stereo partly drawn)
 : -20% | . | 1.2% | .
Cc1cc(/C=C2/C(=O)NC(=O)N(c3ccccc3)C2=O)c(C)n1-c1ccc(F)cc1
 : 5% | . | ? | .
CCOc1ccc2nc(N=Nc3c(O)[nH]c(=S)[nH]c3=O)sc2c1
 : 6% | 0 | ? | -1%
CCc1nn(CC(=O)N2CCC3(CC2)OCCO3)c(=O)c2cc3ccccc3n12
 : 0% | . | -0.5% | -5%
Cc1nc2cc(C(=O)N3CCC4(CC3)OCCO4)ccc2n1-c1ccc(Br)cc1
 : -4% | 1 | -0.4% | -2%
O=[N+]([O-])c1ccc(N2CCCCCC2)c2ncccc12
 : 5% | 2 | 5.2% | -14%
CC12CN3C(O)C(C)(C1)CC(C)(C2)C3O (stereo not drawn)
 : 11% | 1 | 1.0% | 0%
Cc1ccc(Cn2ccccc2=N)cc1
 : 17% | . | -0.9% | -1%
O=C(C1CC(c2ccc(F)cc2)=NO1)N1CCC2(CC1)OCCO2 (stereo not drawn)
 : -1% | 1 | 0.3% | -47%
CCN(CC)c1ccc(/C=C2\C(=O)NC(=O)N(CC3CCCO3)C2=O)cc1 (stereo not drawn)
 : -3% | -7 | ? | 0%
CN(C)C1(CNC(=O)c2ccc(Cl)c(S(=O)(=O)NCc3ccco3)c2)CCCCC1
 : 6% | 3 | 0.4% | 0%
COC1/C=C/C=C(\C)Cc2cc(O)c(Cl)c(c2)N(C)C(=O)CC(OC(=O)C(C)C)C2(C)OC2C(C)C2CC1(O)NC(=O)O2 (stereo not drawn)
 : -12% | . | -1.6% | .
COc1ccccc1N1CCN(Cc2c(F)cccc2Cl)CC1
 : -22% | -1 | -0.6% | 0%
CN(C)CCOc1ccc(/C(=C(/CCCl)c2ccccc2)c2ccccc2)cc1
 : -9% | . | 5.4% | .
Fc1cccc(F)c1CN1CCN(Cc2c(F)cccc2F)CC1
 : -3% | 2 | -1.1% | -7%
O=c1c2ccccc2nc(-c2ccco2)n1-c1ccccc1
 : -5% | 9 | 5.2% | 3%
Brc1ccc(C2N3CCCN23)cc1 (stereo not drawn)
 : -8% | 0 | -3.7% | -4%
O=C(Cn1c(NCCCl)nc2ccccc21)c1ccc(Br)cc1
 : 26% | . | 4.6% | .
CCCCn1c(O)c(C(C)=NCCCN(C)C)c(=O)[nH]c1=O
 : -10% | 2 | -6.7% | -1%
Cc1cc(C)c2c(c1)-c1cc(C)nn1C(c1cccnc1)N2 (stereo not drawn)
 : 2% | -3 | ? | 0%
CCOP(=O)(OCC)C(NC(=O)C(Cl)Cl)C(Cl)(Cl)Cl (stereo not drawn)
 : 4% | -3 | -1.1% | -1%
C=C1C(=O)OC2CC(C)C3C=CC(=O)C3(C)C(O)C12 (stereo not drawn)
 : 3% | . | 0.4% | .
CCOC(=O)c1c(-n2c(C)cc(/C=C3/C(=O)NC(=O)N(CC)C3=O)c2C)sc2c1CCCC2
 : -15% | . | -0.1% | .
C=COCCn1c(C)c(C(=O)OCC)c2cc(O)ccc21
 : -3% | 5 | -1.7% | -6%
CC1(O)CCC2C3CCC4=CC(=O)CCC4=C3C=CC21C (stereo not drawn)
 : -14% | . | -2.0% | .
N=C1c2ccccc2CN1CC(=O)c1ccccc1
 : -6% | 9 | -1.7% | -37%
O=S(=O)(F)c1ccc2nc(-c3cccc(Sc4ccccc4)c3)cc(Cl)c2c1
 : -1% | 0 | -1.9% | -1%
COc1cc(C(C)=O)ccc1OC(=O)N(C)c1ccccc1
 : 2% | . | 0.0% | 1%
C#C[C@@]1(O)CCC2C3CCC4=C/C(=N/OCC(=O)NC(C(=O)O)C(C)O)CC[C@]4(C)C3CC[C@@]21C (stereo partly drawn)
 : 8% | . | -3.2% | -3%
COC(=O)C1=C(c2ccc3ccccc3c2)C[C@@H]2CC[C@H]1N2C(=O)NC1Cc2ccccc2C1
 : 9% | . | 8.3% | .
CCC(CC)N1CCN(Cc2nc3ccccc3c(=O)n2-c2ccc(F)cc2)CC1
 : -5% | . | -3.7% | -5%
C[N+]1(C)CCc2cc3c(cc2[C@H]1[C@@H]1OC(=O)c2c1ccc1c2OCO1)OCO3
 : 1%&-25% | -10&-12 | ? | -1%&3%
CCOC(=O)c1ccc(N=C(CC)c2c(O)n(C)c(=O)n(C)c2=O)cc1
 : -7% | -13 | 3.4% | -7%
CCOP(=O)(OCC)C(Nc1ccc(F)cc1)c1ccccc1 (stereo not drawn)
 : -5% | 6 | ? | 3%

Source: PubChem
